High-throughput results deposited in PubChem BioAssay by National Center for Advancing Translational Sciences (NCATS).
AmpC inh no det = inhibitors of E. coli AmpC beta-lactamase without detergent; P00811; AmpC nitrocefin hydrolysis, absorbance 480 nm, no detergent; potencies from a single point are estimates; Potency, µM (highest dose often 28.7 µM), without a hit: at the highest dose activity change, negative = inhibition; actives 1.8% (n = 71,000); AID 585; active = falling curve, for most hits resting on a single point; inconclusive = weak or doubtful change; inactive = flat or rising curve; note: % of control where 0% means no effect; about half of the hits show no inhibition at the top dose; a quarter of the inactives give rising signals
Target sequence (P00811 whole entry, looked up): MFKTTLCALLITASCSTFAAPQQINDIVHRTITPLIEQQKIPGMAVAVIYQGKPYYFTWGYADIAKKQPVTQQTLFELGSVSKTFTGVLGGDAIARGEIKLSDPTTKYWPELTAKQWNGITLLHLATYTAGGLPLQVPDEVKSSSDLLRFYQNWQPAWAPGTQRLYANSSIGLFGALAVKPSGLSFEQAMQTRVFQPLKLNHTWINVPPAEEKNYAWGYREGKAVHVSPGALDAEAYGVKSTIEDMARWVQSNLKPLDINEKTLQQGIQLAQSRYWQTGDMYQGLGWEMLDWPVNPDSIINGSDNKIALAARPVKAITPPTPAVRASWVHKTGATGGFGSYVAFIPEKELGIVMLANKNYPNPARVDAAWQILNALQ
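AmpC, 20 mM phosphate pH 7.0; 15 min cpd preinc, RT; start with nitrocefin (800 uM stock); A480 kinetic read, 20 s intervals, 4 min. No-enzyme wells = negative control.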
* hit, by the source's call; [ ] = remark or other dose. Potency is the fitted concentration of half-maximal effect. The list is partial; rates above refer to the full screens.

SMILES	AmpC inh no det
COc1ccc(-n2c(C)cc(C(=O)CSc3nnc(-c4cccs4)o3)c2C)cc1	-18%
CCOCCCNS(=O)(=O)c1ccc2c(c1)CCN2C(=O)CC	5%
COc1ccccc1-c1cn(S(=O)(=O)c2ccc(F)cc2)nc1N	-15%
C=CCNc1sc(C(=O)C(C)(C)C)c(N)c1C#N	-5%
O=C(NCCN1CCCC1)C1COc2ccccc2O1 (stereo unspecified)	-8%
Cn1nnnc1SCC(=O)N1CCN(C(c2ccccc2)c2ccccc2)CC1	91%
CCSc1nnc(NC(=O)c2csc3c2CCC(C)C3)s1 (stereo unspecified)	-8%
O/N=C(\c1ccc(Cl)cc1)c1cc2ccccc2o1	-11%
COc1cc(O)c(NC(C)=O)c2nonc12	-6%
Cn1c(=O)c2c(SCc3cccnc3)nc(CC(C)(C)C)nc2n(C)c1=O	43%

Reprinted from the part before: five entries, followed by the next part.
SMILES	AmpC inh no det
Cn1nnnc1SCC(=O)N1CCN(C(c2ccccc2)c2ccccc2)CC1	91%
CCSc1nnc(NC(=O)c2csc3c2CCC(C)C3)s1 (stereo unspecified)	-8%
O/N=C(\c1ccc(Cl)cc1)c1cc2ccccc2o1	-11%
COc1cc(O)c(NC(C)=O)c2nonc12	-6%
Cn1c(=O)c2c(SCc3cccnc3)nc(CC(C)(C)C)nc2n(C)c1=O	43%
CC(=O)CCc1c(C)c2cccc(C)c2[nH]c1=O	24%
O=C(NCc1ccco1)c1ccc(Br)c(S(=O)(=O)N2CCCCC2)c1	-12%
O=S(=O)(NCCOCCNS(=O)(=O)c1ccccc1)c1ccccc1	-3%
C=C(C)c1cccc(C(C)(C)NC(=O)N2CCN(C)CC2)c1	-1%
Cc1cc(C)cc(NC(=O)CN(C)S(=O)(=O)c2cnc[nH]2)c1	-7%
COC(=O)Cn1c(C(=O)N2CCCC2)cc2c1C[C@H]1CN(C(=O)c3ccccc3)[C@@](Cc3ccc(F)cc3)(C(=O)OC)[C@@H]21	197%
CCOc1ccc2nc(NC(=O)C(NS(=O)(=O)c3cccs3)C(C)C)sc2c1 (stereo unspecified)	-20%
Cc1ccccc1NC(=O)C(C#N)Cc1cccnc1 (stereo unspecified)	-9%
O=C(Nc1ccc(Cl)cc1C(=O)Nc1ccc(Br)cn1)c1ccco1	-10%
Cc1cc(C)n2cc(CSc3nnc(N)s3)nc2n1	-6%
CSCCC(NC(=O)c1cc(C(C)(C)C)oc1C)C(=O)O (stereo unspecified)	5%
COc1ccc(OC)c(NC(=O)c2cc3n(n2)C(C(F)(F)F)CC(c2ccc4c(c2)OCO4)N3)c1 (stereo unspecified)	34%
CN(Cc1ccccc1)Cc1nc2c(c(=O)n(C)c(=O)n2C)n1Cc1ccc(Cl)cc1	120%
O=C(Nc1ccc(N2CCOCC2)cc1)C1CCCN(S(=O)(=O)c2ccccc2)C1 (stereo unspecified)	44%
CN(C)CCSS(=O)(=O)O	1%[5.75 µM]
CC(OC(=O)c1ccco1)C(=O)NC1CCCCC1 (stereo unspecified)	-4%
CC(=O)N(C)c1ccc(NC(=O)c2cnn(C)c2)cc1	-13%
COn1c(C)c(C(C)=O)c2c3nonc3ccc21	0%
CC(=O)CSc1ncnc2c1oc1ccccc12	18%
CCN(CC)c1nc2nonc2nc1N(CC)CC	-11%

Molecules from the list above that contain a furan ring, fused or not:
SMILES	AmpC inh no det
O/N=C(\c1ccc(Cl)cc1)c1cc2ccccc2o1	-11%
O=C(NCc1ccco1)c1ccc(Br)c(S(=O)(=O)N2CCCCC2)c1	-12%
O=C(Nc1ccc(Cl)cc1C(=O)Nc1ccc(Br)cn1)c1ccco1	-10%
CSCCC(NC(=O)c1cc(C(C)(C)C)oc1C)C(=O)O (stereo unspecified)	5%
CC(OC(=O)c1ccco1)C(=O)NC1CCCCC1 (stereo unspecified)	-4%
CC(=O)CSc1ncnc2c1oc1ccccc12	18%

(continued)
SMILES	AmpC inh no det
CCOC(=O)C1CCN(C(=O)C2CCN(S(=O)(=O)N3CCCC3)CC2)CC1	11%
O=S(=O)(c1cccs1)N1CN(Cc2cccs2)c2nc3ccccc3nc21	-9%
CC(C)C[C@@H](CC(=O)N[C@@H](CCC(=O)O)CC(=O)O)NC(=O)[C@@H]1CNCC[C@H]1NC(=O)C[C@H](CCCN)NC(=O)C[C@H](CO)NC(=O)[C@@H]1CCCC[C@H]1N	-2%
C=CCn1c(SCC(=O)N2CCN(c3ccc(F)cc3)CC2)nnc1-c1cccs1	33%
COc1ccc(C2CC(=O)C3=C(C2)Nc2ncnn2C3c2ccccc2C)cc1 (stereo unspecified)	4%
C=CCC(NCc1ccco1)c1ccc(OC)cc1OC (stereo unspecified)	-8%
CCN(CC)CCCN(Cc1cc2cc3c(cc2[nH]c1=O)OCCO3)C(=O)Nc1ccc(F)cc1	41%
CCOC(=O)n1ccc(C(=O)Nc2ccccc2F)n1	8%
O=C(C1CC1)N1CCC(c2nc(-c3ccc(S(=O)(=O)NCC4CCCO4)cc3)no2)CC1 (stereo unspecified)	62%
CSCCC(=O)Nc1ccc(C(C)=O)cc1	3%
CC1CCN(CC(=O)NCc2ccccc2)CC1	-7%
COCc1cc(CN2CCCC2)c(O)c2ncccc12	83%
COc1cc(=O)n(C)c2c(OC[C@@H](O)C(C)(C)O)cccc12	0%[12.8 µM]
CCCCCNC(=O)c1ccc2c(=O)[nH]c3c(C(=O)NCC4CCCO4)sc(=S)n3c2c1 (stereo unspecified)	31%
Cc1cc(C)n(C(=O)c2cccc(S(=O)(=O)N3CCOCC3)c2)n1	13%
O=c1c(O)c(-c2ccccc2)oc2cc(O)cc(O)c12	-14%
NC(=O)C(Cc1ccccc1)NS(=O)(=O)c1ccc(N2CCCC2=O)cc1 (stereo unspecified)	-10%
Nn1c(SCC(=O)N2CCCc3ccccc32)nnc1-c1ccc(Cl)cc1	10%
O=c1[nH]c2cc(Cl)cc(Cl)c2[nH]c1=O	-15%
O=C(O)CCn1c(SCc2ccccc2)nc2ccccc21	1%
O=c1[nH]c(=S)c2[nH]c(=O)n(-c3ccccc3)c2[nH]1	2%[5.75 µM]
CCCCCn1c(=O)[nH]c2cc(C(=O)O)ccc2c1=O	-9%
CC(C)CCNC(=O)CN(CC1CCCO1)C(=O)CCC(=O)Nc1nccs1 (stereo unspecified)	18%
Cc1nc2cnc(N3CCNCC3)nc2n(C)c1=O	9%
c1ccsc1	-18%
CCCOc1ccccc1Cn1c(=O)oc2ccc(C)cc21	-3%
CCNc1nc(NCC)n2c(SCC(=O)O)nnc2n1	-8%
CC1C(O)=C(c2nc3ccccc3[nH]2)C(=N)N1c1ccccc1 (stereo unspecified)	0%
O=C(CSc1nnc(SCc2ccc(Cl)cc2)s1)N1CCN(C(=O)c2ccco2)CC1	110%
O=C1C(C=NCCCN2CCOCC2)=C(O)c2ccccc21	0%
COC(=O)c1ccc(C(NC(=O)OCc2ccccc2)/C(C)=C/[C@@H](C)C(=O)NCCO)cc1 (stereo partly specified)	3%
Cc1cc(C(=O)OCC(=O)N(C)C2CCS(=O)(=O)C2)c(C)n1-c1ccccc1 (stereo unspecified)	80%
CC[C@]1(c2ccccc2)NC(=O)N(C)C1=O	-4%[12.8 µM]
Cn1c(NC(=O)c2cc(-c3ccc4c(c3)OCO4)nc3ccccc23)cc(=O)n(C)c1=O	38%
O=C(CSc1nc(O)c(C2CCCCC2)c(=O)[nH]1)Nc1ccc(Cl)cc1	-21%
COc1ccc(CN2CCN(Cc3ccccc3)CC2)c(OC)c1	24%
O=C(Nc1ccc2c(c1)OCCO2)C1CCCN(S(=O)(=O)c2cccnc2)C1 (stereo unspecified)	4µM*[single pt active]
COc1ccc(O)c(-c2cn[nH]c2-c2cccs2)c1	-2%
N=C1Sc2ccccc2C2=NCCCN12	-13%
Cc1cc(C)nc(SCC(=O)N2CCOCC2)n1	-1%
COc1cccc(-c2cc(C(=O)N3CCN(C(c4ccccc4)c4ccccc4)CC3)no2)c1	-4%
COCC(C)NC(=O)c1cc(-c2ccccc2OC)on1 (stereo unspecified)	1%
CCN(CC)S(=O)(=O)c1ccc2c(c1)nc(SCn1nnc3ccccc3c1=O)n2CC	47%
COc1ccc(OC)c(S(=O)(=O)NCc2cccnc2)c1	-9%
O=C(Cn1c(=O)sc2ccccc21)Nc1nc2c(s1)CCCC2	-16%
O=c1c(-c2cccs2)nc2cncnc2n1Cc1ccccc1	0%
Cc1cc(C(=O)COC(=O)C2=COCCO2)c(C)n1-c1ccc2c(c1)OCO2	62%
CC(C)OCCCNc1nc2c(c(=O)n(Cc3ccccc3F)c(=O)n2C)n1C	84%
Cc1oc(-c2ccccc2F)nc1CS(=O)CC(=O)NCc1ccc2c(c1)OCO2 (stereo unspecified)	4µM*[single pt active]
C=CCN1C(=O)C(C)(C)N(C(C)=O)c2ccccc21	4%

(list continues)
SMILES	AmpC inh no det
Cc1nn(-c2cccc(C(=O)O)c2)c(C)c1Oc1ccccc1O	1%
COC(=O)c1cc(OC)c(OC)cc1NC(=O)CC1CCCCC1	93%
O=C1c2cccnc2C(=O)N1c1ccccc1-c1ccccc1	3%
O=C(C[N+]12CN3CN(CN(C3)C1)C2)c1ccc(-c2ccccc2)cc1	-7%[5.75 µM]
CCc1c(C)nc2ncnn2c1N1CCCC(C(=O)NCc2ccco2)C1 (stereo unspecified)	3%
Nc1ccccc1NC1=CC(=O)CC(c2ccco2)C1 (stereo unspecified)	-6%
CCOc1ccccc1C1C(C#N)=C(N)Oc2cc(C)n(Cc3ccccn3)c(=O)c21 (stereo unspecified)	9%
COC(=O)c1ccc(N2C(=O)CC(Sc3n[nH]c(C)n3)C2=O)cc1 (stereo unspecified)	4%
N#Cc1c(NCCO)nc(NCc2ccccc2)c2c1CCN(Cc1ccccc1)C2	37%
Brc1ccccc1CN1CCC(N2CCCCC2)CC1	-20%
Cc1ccc(-c2cc(C(=O)NCCCn3ccnc3)c3cc(Br)ccc3n2)o1	93%
CC(=O)N1CC=CC1(CC(C)C)C(=O)NCc1ccc(C)o1 (stereo unspecified)	56%
Cc1cc(C)n2nc(C(=O)Nc3cccnc3)nc2n1	-5%
Cc1cnc(NC(=O)CSc2nnc(-c3cccs3)n2C)s1	-2%
Cc1ccc(C(=O)N2CCN(c3ccccc3)CC2)cc1C	46%
Cc1cc(C)c(C#N)c(=N)o1	-9%
O=c1cc(N=Nc2ccc(O)cc2)[nH]c(=O)[nH]1	-2%[5.75 µM]
O=c1[nH]c(SCc2cccc(Cl)c2)nc2c1CCCC2	-10%
CCOC(=O)Nc1oc2ccccc2c(=O)c1CN1CCOCC1	12%
Cc1cc(NC(=O)c2ccccc2NS(=O)(=O)c2c(C)c(C)cc(C)c2C)no1	-2%
CN1C(=S)SC(C)(C)C1/[N+]([O-])=C/c1cccnc1 (stereo unspecified)	-10%
CCOC(=O)N1CCN(C(=O)Cc2cccs2)CC1	-2%
CCOC(=O)c1cnc(-n2nc(C)cc2C)nc1Nc1cccc(C(C)=O)c1	78%
O=c1c2c(nc3n1CCCCC3)-c1ccccc1CC21CCCC1	24%
COc1cccc(NC(=O)Nc2nnc(N3CCCCC3C)s2)c1 (stereo unspecified)	2.5µM*[single pt active]
CC(C)(C)c1ccc(C(=O)/C=C2\NC(=O)CS2)cc1	-8%
CC(=O)C1=C(C)OC(N)=C(C#N)C1c1ccco1 (stereo unspecified)	-2%
O=S(=O)(Nc1ccc(N2CCOCC2)cc1)c1cccs1	-3%
CC(C)CC(C)Nc1ccc(Nc2ccccc2)cc1 (stereo unspecified)	-5%
CS(=O)(=O)N(CC(=O)Nc1ccc2c(c1)OCCO2)c1ccc2c(c1)OCO2	-12%
O=C(Cn1c(=O)[nH]c2ccsc2c1=O)NC1CCCCC1	-9%
COc1ccc(OC)c(NC(=O)CN2CCC(C(=O)c3ccc(C)cc3)CC2)c1	50%
Cc1ccc(NC(=O)Cn2c(=O)n(CCCCC(=O)NCc3ccco3)c(=O)c3ccccc32)cc1	18%
CCCN1CCN(C(=O)c2cccc3c2C(=O)N(CCOC)C3)CC1	-3%
COc1ccc(OC)c(-c2cc(C(=O)Nc3cc(C)n(Cc4ccc(Cl)cc4)n3)no2)c1	-18%
Cc1ccc2c(c1)NC(=O)C(CC(=O)NCc1cccnc1)O2 (stereo unspecified)	4µM*[single pt active]
O=C(Nc1c(C(=O)NCc2ccco2)cnn1-c1ccccc1)c1cccc(F)c1	8%
CC(C)N(CCO)C(=O)C(c1ccccc1)c1ccccc1	21%
O=C(c1ccc(NS(=O)(=O)c2cccc3cccnc23)cc1)N1CCOCC1	-2%
COc1ccc(-n2c(Cc3cccn3C)nnc2SCC(=O)NC2CCCC2)cc1	94%
CCOC(=O)c1ccc(NC(=O)C(CC)CC)cc1	3%
COC(=O)CN1C(=O)COc2ccc(Cl)cc21	4µM*[single pt active]
Cc1ccc(NC(=O)CN2C(=O)COc3ccc(C)cc32)nc1	-8%
O=C(CCCSc1nc2ccccc2s1)NC1=NCCS1	5%
COc1ccc(NC(=O)COc2nc(N(C)C)nc(N(C)C)n2)cc1	28%
COCCSc1ccccc1C(=O)NCC1CCCO1 (stereo unspecified)	-10%

Rewritten in CSV form: part of the list above
Molecule,AmpC inh no det
CCOC(=O)c1ccc(NC(=O)C(CC)CC)cc1,3%
COC(=O)CN1C(=O)COc2ccc(Cl)cc21,4µM*[single pt active]
